MLL AF4-AF9 inh = inhibitors of human MLL-AF4/AF9 interaction; actives 0.47% (n = 350,000); inhibition, % at 10 µM; AlphaScreen, biotin-AF4 peptide binding to FLAG-AF9; P42568;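 active = every replicate reaching a set inhibition limit, whatever the replicate mean, cut at about 25% in these data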;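 note: 0% = plate neutral control median and 100% = total signal loss; the record names both 10 and 1 µM as test concentration; the first replicate is given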
Target sequence (P42568 whole entry, looked up): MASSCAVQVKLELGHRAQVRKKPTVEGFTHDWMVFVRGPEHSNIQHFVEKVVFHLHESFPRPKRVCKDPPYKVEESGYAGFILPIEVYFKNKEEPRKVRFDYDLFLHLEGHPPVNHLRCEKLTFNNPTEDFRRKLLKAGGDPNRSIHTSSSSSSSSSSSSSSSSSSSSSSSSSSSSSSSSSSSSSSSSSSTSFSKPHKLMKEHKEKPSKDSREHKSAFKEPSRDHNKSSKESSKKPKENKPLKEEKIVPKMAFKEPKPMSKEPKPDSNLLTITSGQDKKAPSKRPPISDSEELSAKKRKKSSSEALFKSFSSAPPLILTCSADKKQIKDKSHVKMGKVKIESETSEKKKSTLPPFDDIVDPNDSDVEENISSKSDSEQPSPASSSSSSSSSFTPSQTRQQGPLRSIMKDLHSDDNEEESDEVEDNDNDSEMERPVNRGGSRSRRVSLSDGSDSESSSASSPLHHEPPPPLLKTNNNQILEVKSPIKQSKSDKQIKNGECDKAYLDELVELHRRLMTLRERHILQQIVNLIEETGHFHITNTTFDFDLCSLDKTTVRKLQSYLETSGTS
Numbers without * were called inactive; & = joins results of further samples. A portion of the library, so the mix of outcomes need not match the whole.

MLL AF4-AF9 inh	molecule
1.9	Cc1noc(C)c1NC(=O)Nc1ccc2c(c1)CC(=O)N([C@H](C)CO)C[C@@H](C)[C@H](CN(C)Cc1ccc(C(F)(F)F)cc1)O2
-1.0	CC(C)NC(=O)N(C)C[C@H]1Oc2ccc(NC(=O)NC3CCCCC3)cc2C(=O)N([C@@H](C)CO)C[C@@H]1C
-1.9	CCCN1C[C@H](C)[C@@H](OC)CN(C)C(=O)c2cc(NS(=O)(=O)CC)ccc2OC[C@H]1C
0.7	C/C=C/c1ccc2c(c1)O[C@@H](CN(C)Cc1cccnc1)[C@@H](C)CN([C@@H](C)CO)S2(=O)=O
3.2	CN(C)C(=O)c1cccc(-c2ccc([C@@H]3[C@@H](CO)N4C(=O)CN(C(=O)C5CCCCC5)C[C@H]34)cc2)c1
-5.6	CC(=O)N(C)C[C@H]1Oc2ncc(C3=CCCC3)cc2C(=O)N([C@@H](C)CO)C[C@H]1C
3.4	CCCN(C)C1CN(Cc2cn(Cc3ccc(Cl)cc3)nn2)S(=O)(=O)C1 (stereo not given)
0.0	CN(C)CC(=O)N[C@H]1CC[C@H](CC(=O)O)O[C@@H]1CO
0.0	CC(=O)N(C)C[C@H]1Oc2ncc(-c3cccnc3)cc2C(=O)N([C@@H](C)CO)C[C@@H]1C
-2.4	C[C@H]1CN([C@@H](C)CO)C(=O)c2cc(Br)cnc2O[C@@H]1CN(C)C(=O)Nc1ccccc1
-5.2	C[C@@H]1CN([C@H](C)CO)C(=O)Cc2cc(NC(=O)c3ccncc3)ccc2O[C@@H]1CN(C)CC1CC1
-0.7	Cc1ccc(S(=O)(=O)Nc2ccc3c(c2)CC(=O)N([C@@H](C)CO)C[C@H](C)[C@H](CN(C)C(=O)NC(C)C)O3)cc1
0.5	O=S(=O)(N[C@H]1CC[C@H](CCn2cc(-c3ccccc3F)nn2)O[C@@H]1CO)c1ccc(F)cc1
2.5	CO[C@H]1CC[C@H]2CCOc3c(C#N)cccc3C(=O)N(C)C[C@H](OC)[C@H](C)C(=O)N(C)C[C@@H]1O2
0.5	CN(C)C(=O)c1ccc(-c2ccc3c(c2)[C@H]2[C@H](CCN2S(=O)(=O)c2cn(C)cn2)[C@@H](CO)N3)cc1
-2.2	C[C@@H]1CN([C@H](C)CO)C(=O)c2cc(NC(=O)CCC(F)(F)F)ccc2O[C@@H](C)CCCCO[C@H]1CN(C)C(=O)Nc1ccccc1
1.9	COc1ccc(NC(=O)C2Cc3c(-c4ccco4)ccnc3O2)cc1OC (stereo not given)
1.2	C[C@@H]1CN([C@H](C)CO)C(=O)c2cc(NC(=O)C3CCCCC3)ccc2O[C@@H]1CN(C)S(=O)(=O)c1cn(C)cn1
-2.9	C[C@@H]1CN([C@@H](C)CO)S(=O)(=O)c2ccc(-c3cccc(F)c3)cc2O[C@@H]1CN(C)S(=O)(=O)c1ccc(F)cc1
-3.9	CNC[C@@H]1Oc2ccc(NS(=O)(=O)c3ccc(OC)cc3)cc2C(=O)N([C@@H](C)CO)C[C@H]1C
-2.5	COc1ccc(NC(=O)N(C)C[C@H]2Oc3c(NC(=O)C4CCOCC4)cccc3C(=O)N([C@H](C)CO)C[C@H]2C)cc1
3.1	CC(C)(C)c1cc2nc(NCCOc3ccccc3)ccn2n1
-13	CC(C)C(=O)Nc1ccc2c(c1)C(=O)N(C)[C@H]1CC[C@H](CC(=O)NCc3ccccc3)O[C@H]1CO2
-1.7	CN(Cc1ccc(Cl)c(Cl)c1)C(=O)c1[nH]c(C(F)(F)F)nc1-c1ccccc1
4.0	CCCNC(=O)N(C)C[C@@H]1Oc2cc(C3=CCCCC3)ccc2S(=O)(=O)N([C@H](C)CO)C[C@H]1C
-0.4	C[C@@H]1CCCCO[C@@H](CN(C)C(=O)c2ccccc2)[C@H](C)CN([C@@H](C)CO)C(=O)c2cc(NS(C)(=O)=O)ccc2O1
-12	C[C@@H]1CN([C@H](C)CO)C(=O)c2cc(C#CCN(C)C)cnc2O[C@H]1CN(C)C(=O)NC1CCCC1
-6.9	CNC[C@@H]1Oc2c(NS(=O)(=O)c3ccccc3)cccc2C(=O)N([C@@H](C)CO)C[C@H]1C
0.3	COc1cccc(S(=O)(=O)N[C@@H]2CC[C@@H](CC(=O)NCc3ccc(Cl)cc3)O[C@H]2CO)c1
-1.1	C[C@@H]1CCCCO[C@H](CN(C)S(=O)(=O)c2cn(C)cn2)[C@H](C)CN([C@@H](C)CO)C(=O)c2cc(NC(=O)CCC(F)(F)F)ccc2O1
0.3	COC(=O)[C@@]12C[C@@H](CC(=O)NCc3ccc(OC)c(OC)c3)C(=O)N(Cc3ccc4c(c3)OCO4)C1=CCC(C)(C)C2
-2.4	C[C@@H]1CCCCO[C@@H](CN(C)Cc2ccc(C(=O)O)cc2)[C@@H](C)CN([C@@H](C)CO)C(=O)c2cc(NS(=O)(=O)c3cccs3)ccc2O1
0.8	N#C[C@@H]1[C@@H](c2ccccc2C2=CCCCC2)[C@@H](CO)N1C(=O)Cc1ccncc1
-2.2	O=C(O)C[C@@H]1C[C@@H]2c3cc(NC(=O)Nc4ccccc4F)ccc3O[C@@H]2[C@H](CO)O1
-3.0	COc1ccc(NC(=O)N(C)C[C@@H]2OCCCC[C@@H](C)Oc3ccc(NS(=O)(=O)c4cn(C)cn4)cc3C(=O)N([C@H](C)CO)C[C@H]2C)cc1
-9.0	C[C@@H]1CN([C@H](C)CO)C(=O)Cc2cc(NC(=O)CCCN(C)C)ccc2O[C@H]1CN(C)S(=O)(=O)c1ccccc1

Quoted at random: 5 compounds from above.
MLL AF4-AF9 inh	molecule
-2.2	O=C(O)C[C@@H]1C[C@@H]2c3cc(NC(=O)Nc4ccccc4F)ccc3O[C@@H]2[C@H](CO)O1
-5.2	C[C@@H]1CN([C@H](C)CO)C(=O)Cc2cc(NC(=O)c3ccncc3)ccc2O[C@@H]1CN(C)CC1CC1
0.8	N#C[C@@H]1[C@@H](c2ccccc2C2=CCCCC2)[C@@H](CO)N1C(=O)Cc1ccncc1
3.2	CN(C)C(=O)c1cccc(-c2ccc([C@@H]3[C@@H](CO)N4C(=O)CN(C(=O)C5CCCCC5)C[C@H]34)cc2)c1
3.1	CC(C)(C)c1cc2nc(NCCOc3ccccc3)ccn2n1

Remaining list, next part.
MLL AF4-AF9 inh	molecule
-16	CC(C)NC(=O)Nc1ccc2c(c1)C(=O)N([C@H](C)CO)C[C@H](C)[C@@H](CN(C)C(=O)NC1CCCCC1)OCCCC[C@H](C)O2
9.1	CO[C@@H]1CN(C)C(=O)c2cc(NC(=O)NC3CCCCC3)ccc2OC[C@H](C)N(CCc2ccccc2)C[C@@H]1C
-26	CN(C)CC(=O)N1CC2(C1)[C@H](c1ccccc1)[C@H](CO)N2Cc1ccccc1F
-3.5	C[C@@H]1CN([C@@H](C)CO)C(=O)c2cccc(NS(=O)(=O)c3cn(C)cn3)c2O[C@@H]1CN(C)C(=O)NC1CCCCC1
-0.3	C[C@@H]1CN([C@@H](C)CO)C(=O)c2cccc(NC(=O)C3CC3)c2O[C@H]1CN(C)Cc1ccc(-c2ccccc2)cc1
-0.3	C[C@H](CO)N1C[C@H](C)[C@@H](CN(C)C(=O)Nc2ccc(C(F)(F)F)cc2)Oc2cc(-c3ccncc3)ccc2S1(=O)=O
-1.0	C[C@@H]1CN([C@@H](C)CO)C(=O)Cc2cc(NC(=O)C3CC3)ccc2O[C@@H]1CN(C)C
1.8&-0.2	C[C@H]1CN([C@@H](C)CO)C(=O)CCCn2nncc2CO[C@@H]1CN(C)S(=O)(=O)c1ccc(Oc2ccccc2)nc1
-19	COC(=O)C[C@@H]1CC[C@@H](NC(=O)NC2CCCC2)[C@@H](CO)O1
-3.3	CCCNC(=O)C[C@H]1CC[C@H]2[C@@H](COC[C@@H](O)CN2CC2CCCCC2)O1
5.7	O=C1NC[C@@H](CCCCN2C[C@H](Cc3ccccc3)N(CCc3ccc(O)cc3)C(=O)C2=O)N(CCc2ccccc2)C1=O
-0.7	C[C@@H]1CN([C@H](C)CO)C(=O)c2cccc(NC(=O)C3CCCCC3)c2O[C@H]1CN(C)CC1CC1
-1.6	COc1ccc(-c2ccc([C@H]3[C@H]4CN(C(=O)c5ccc(F)cc5)CCCCN4[C@H]3CO)cc2)cc1
0.6	O=C(C[C@H]1CC[C@H]2[C@@H](COC[C@@H](O)CN2C(=O)Nc2ccc(Cl)c(Cl)c2)O1)NCc1ccc(F)cc1
-8.4	COCC(=O)N1[C@H](CO)[C@H](c2ccccc2-c2ccc(C)cc2)[C@@H]1C#N
-3.0	CC(=O)N(C)C[C@H]1Oc2ncc(-c3cncnc3)cc2C(=O)N([C@@H](C)CO)C[C@@H]1C
3.6	C[C@H]1CN([C@@H](C)CO)C(=O)Cc2cc(NC(=O)Cn3cnnn3)ccc2O[C@@H]1CN(C)Cc1ccc(Oc2ccccc2)cc1
-6.4	CCOC(=O)[C@H]1[C@@H]2C(=O)N3CCC[C@H]3[C@H](O[Si](C(C)C)(C(C)C)C(C)C)[C@H]2C=C2CCN(S(=O)(=O)c3ccc(C)cc3)C[C@H]21
-1.5	O=C(C[C@H]1C[C@@H]2c3cc(NC(=O)c4ccc5c(c4)OCO5)ccc3O[C@@H]2[C@@H](CO)O1)NCC(F)(F)F
3.9	C[C@@H]1CN([C@@H](C)CO)C(=O)Cc2cc(N(C)C)ccc2O[C@H]1CN(C)C(=O)Nc1cccc2ccccc12
-2.4	C[C@H]1CN([C@@H](C)CO)C(=O)c2cc(NS(=O)(=O)c3cn(C)cn3)ccc2O[C@H]1CN(C)C(=O)Nc1ccc2c(c1)OCO2
-3.1	COCC(=O)Nc1ccc2c(c1)OC[C@H](C)N(Cc1cccnc1)C[C@H](C)[C@H](OC)CN(C)C2=O
-6.1	C[C@H](CO)N1C[C@H](C)[C@@H](CN(C)C(=O)CN(C)C)Oc2ncc(-c3ccccc3F)cc2C1=O
-1.2	O=C(c1ccccc1F)N1CC(=O)N2[C@H](CO)[C@H](c3ccc(-c4ccc(F)cc4)cc3)[C@H]2C1
-2.3	C#CCN([C@H](/C=C/C1CC1)[C@@H](O)Cc1ccccc1)[C@@H](Cc1ccccc1)C(=O)OC
0.8	O=C(c1ccccc1F)N1C[C@H]2[C@@H](c3ccccc31)[C@@H](CO)N2Cc1ccc2c(c1)OCO2
-2.1	CCC(=O)N(C)C[C@@H]1Oc2cc(C#Cc3ccncc3)ccc2S(=O)(=O)N([C@@H](C)CO)C[C@H]1C
0.0	CCN(C(=O)CSc1nnc(NCCOC)s1)c1c(N)n(Cc2ccccc2)c(=O)[nH]c1=O
0.9	CNC[C@H]1OCCCC[C@@H](C)Oc2ccc(N(C)C)cc2C(=O)N([C@H](C)CO)C[C@@H]1C
-3.0	COc1ccc(S(=O)(=O)Nc2ccc3c(c2)CC(=O)N([C@H](C)CO)C[C@@H](C)[C@@H](CN(C)C(=O)NC(C)C)O3)cc1
0.5	CCC(=O)N(C)C[C@H]1Oc2cc(-c3ccc(C)cc3)ccc2S(=O)(=O)N([C@H](C)CO)C[C@H]1C
-3.0	O=C(Nc1c2c(nn1-c1ccccc1)CS(=O)(=O)C2)C1CC1
-0.9	Cc1ccn2c(=O)c(NC(=O)c3ccc4c(c3)OCO4)c(C)nc2c1
0.4	C[C@H]1CN([C@@H](C)CO)C(=O)c2cc(NC(=O)C3CC3)ccc2O[C@H]1CN(C)Cc1ccc(Cl)c(Cl)c1
1.8	Cc1ccc(S(=O)(=O)N(C)C[C@@H]2Oc3ccc(NC(=O)Nc4c(C)noc4C)cc3CC(=O)N([C@@H](C)CO)C[C@@H]2C)cc1
0.0	CC=Cc1ccc2n(c1=O)C[C@H]1[C@H](CO)[C@@H](C(=O)NCCC)N(CC3CC3)[C@@H]21 (mixture of isomers)

In the list so far, these have an NH in an aromatic ring.
MLL AF4-AF9 inh	molecule
-1.7	CN(Cc1ccc(Cl)c(Cl)c1)C(=O)c1[nH]c(C(F)(F)F)nc1-c1ccccc1
0.0	CCN(C(=O)CSc1nnc(NCCOC)s1)c1c(N)n(Cc2ccccc2)c(=O)[nH]c1=O

Other results.
MLL AF4-AF9 inh	molecule
-0.8	N#C[C@@H]1[C@H](c2ccccc2-c2ccc(F)cc2)[C@@H](CO)N1c1ncc(-c2ccccc2)s1
0.9	CCN(C[C@@H]1N[C@H](CO)[C@H]1c1ccc(-c2cccc(C#N)c2)cc1)C(=O)COC
-6.7	O=C(Cc1ccccn1)N1CC2(C1)[C@@H](c1ccccc1)[C@@H](CO)N2C(=O)c1ccncc1
1.0	O=C(C[C@H]1C=C[C@@H](NS(=O)(=O)c2ccc(F)cc2)[C@H](CO)O1)NCc1ccncn1
-0.4	CC(=O)N[C@H]1CC[C@H](CCNC(=O)C2CCC2)O[C@@H]1CO
-3.6	COc1ccc2c3c([nH]c2c1)[C@@H](CO)NCC31CCN(C(=O)c2ccccc2)CC1
0.4	O=C(Nc1cccc(Cl)c1)N[C@H]1CC[C@H](CCNC(=O)C2CC2)O[C@H]1CO
1.4	O=C(NC1Cc2ccccc2C1)[C@@H]1[C@@H](CO)[C@@H]2Cn3c(ccc(-c4ccccc4)c3=O)[C@H]1N2
-3.5	CCC(=O)N[C@H]1CC[C@@H](CCn2cc(C3CC3)nn2)O[C@H]1CO
-2.8	Cc1noc(C)c1NC(=O)N(C)C[C@H]1Oc2ncc(C#CC(C)C)cc2C(=O)N([C@@H](C)CO)C[C@@H]1C
-0.7	O=C(C[C@H]1CC[C@H](NC(=O)CC2CC2)[C@@H](CO)O1)NCc1ccc(-c2ccccc2)cc1
-1.2	C[C@H](CO)N1C[C@H](C)[C@H](CN(C)S(=O)(=O)c2cccc(C#N)c2)OCc2cn(nn2)CCCC1=O
-1.6	CCCNC(=O)C1(C)CCCN(Cc2csc3ccccc23)C1 (stereo not given)
-2.7	Cc1ccc(S(=O)(=O)Nc2ccc3c(c2)C(=O)N([C@@H](C)CO)C[C@@H](C)[C@H](CN(C)C(=O)c2ccccc2)OCCCC[C@H](C)O3)cc1
